Screens deposited in PubChem by National Center for Advancing Translational Sciences (NCATS).
2A Renilla: FMDV 2A StopGo reporter, Renilla signal. HEK cells with a luciferase reporter of 2A StopGo recoding. Potency, µM (top dose mostly 57.5 µM), for the others: at the top dose signal change, negative = less light. 0.32% of 120,000 active. AID 1745857; active means well fitted falling curve with a large enough effect; inconclusive means small, poorly fitted or top-dose-only effect; inactive means no such curve, though single readings can be large or run the other way; further: nearly all actives have a fitted effect of over 55% in size; overnight with compound
StopGo FLuc: FMDV 2A StopGo reporter, firefly signal; HEK cells with a luciferase reporter of 2A StopGo recoding; Potency, µM (top dose mostly 57.5 µM), inactives show top-dose signal change, negative = less light; 0.23% of 120,000 active; active = well fitted falling curve with a large enough effect; inconclusive = small, poorly fitted or top-dose-only effect; inactive = no such curve, though single readings can be large or run the other way; further: nearly all actives have a fitted effect of over 60% in size; overnight with compound
The depositor's hits bear a star; ? = inconclusive; [ ] = another dose, or the depositor's remark. On the % scale 0 is the no-effect control and ±100 the full control effect; potency means the concentration at half of the fitted maximal effect. An excerpt; count on the stated rates, not on these rows.

structure | 2A Renilla | StopGo FLuc
O=c1c2sc3ccccc3c2n(Cc2ccc(Cl)cc2)c(=O)n1Cc1ccco1 | -11.0% | -10.3%
CCOC(=O)c1cc(S(=O)(=O)Nc2ccc(OC)c(Cl)c2)[nH]n1 | 169.5%[activator] | 5.4%
O=C1CCCC2=C1C(c1ccccc1F)c1c([nH]n(-c3ccccc3)c1=O)N2 (configuration not stated) | 11.8% | 8.1%
Cc1cc(C2=NNC(=Nc3ccccc3)SC2)c(C)n1CC1CCCO1 (configuration not stated) | -10.0% | 54.3%[activator]
Cc1cccc(N2CCN(C(=O)CCn3c(=O)c4cccn4c4cccnc43)CC2)c1C | -0.4% | -1.2%
COC(=O)c1ccccc1NC(=O)C1=C(c2ccccc2)S(=O)(=O)CCO1 | -17.6% | 4.0%
CC(C)(C)c1cc(/C=C(\C#N)C(=O)Nc2ccccc2)cc(C(C)(C)C)c1O | ? | ?
COc1ccc(CCNC(=O)c2nn(-c3ccc(C)cc3)c(=O)c3c2c2ccccc2n3C)cc1OC | -7.6% | -0.7%
Cc1nc2nc(SCC(=O)NCCc3ccccc3)nn2c(C)c1Cc1c(F)cccc1Cl | -2.0% | 10.7%
CC(=O)c1cccc(-n2cccc2)c1 | 11.2% | 13.9%
CCCOc1ccc(CNC(=O)c2cc3oc4ccccc4c3n2C)cc1 | -25.7% | 0.0%
CCOc1ccc(NC(=O)Cn2cnc3sc(C)c(S(=O)(=O)N4CCN(c5ccccc5OC)CC4)c3c2=O)cc1 | -4.9% | -15.7%

A different layout for part of the listing above.
> CCOC(=O)c1cc(S(=O)(=O)Nc2ccc(OC)c(Cl)c2)[nH]n1
  2A Renilla: 169.5%[activator]	StopGo FLuc: 5.4%

> O=C1CCCC2=C1C(c1ccccc1F)c1c([nH]n(-c3ccccc3)c1=O)N2 (configuration not stated)
  2A Renilla: 11.8%	StopGo FLuc: 8.1%

> Cc1cc(C2=NNC(=Nc3ccccc3)SC2)c(C)n1CC1CCCO1 (configuration not stated)
  2A Renilla: -10.0%	StopGo FLuc: 54.3%[activator]

> Cc1cccc(N2CCN(C(=O)CCn3c(=O)c4cccn4c4cccnc43)CC2)c1C
  2A Renilla: -0.4%	StopGo FLuc: -1.2%

Later entries:
structure | 2A Renilla | StopGo FLuc
COc1cc2c(cc1NC(=O)COc1ccc(Br)cc1)oc1ccccc12 | -0.6% | -8.7%
Cc1cc(C)nc(NS(=O)(=O)c2ccc(Nc3nc(-c4ccc(C)c(C)c4)cs3)cc2)n1 | 14.0% | ?
CCOC(=O)c1cnc(NC2CCCCC2)c2ccccc12 | 8.8% | 61.8%[activator]
COC(=O)C1CN(Cc2ccc(F)cc2)CCS(=O)(=O)N1Cc1ccc(C)cc1 (configuration not stated) | 147.2%[activator] | 6.2%
CCCCOc1ccc(C(=O)N(Cc2nc(-c3ccc(Cl)cc3)no2)C(C)C)cc1 | 0.9% | -3.2%
CCN(c1ccccc1)c1nnc(NC(=O)Nc2cc(Cl)ccc2OC)s1 | -6.7% | -8.9%
Cc1nn(Cc2noc(C(=O)NC(C)c3ccccc3)n2)c(C)c1Br (configuration not stated) | 9.9% | 1.0%
CCN(c1ccccc1)c1ncnc2c1cnn2-c1ccc(OC)cc1 | 38.9%[activator] | 182.0%[activator]
COc1ccc(CCNC(=O)c2cc3c(-c4ccccc4F)nn(C)c3s2)c(OC)c1 | -12.5% | -18.0%
Cc1ccccc1/C=C1\Cc2ccccc2C1=O | 43.0%[activator] | 81.5%[activator]
CCCn1cc(S(=O)(=O)c2ccc(C)c(C)c2)c(=O)c2cc(F)c(N3CCCCC3)cc21 | 1.4% | 10.7%
COc1ccc(C(=O)N2CCC(c3ccncc3)CC2)cc1OC | 7.5% | 10.2%
Cc1ccc(C(=O)Nc2ccc(CC(=O)N3CCOCC3)cc2)cc1F | 0.6% | 82.4%[activator]
CCc1ccccc1NC(=O)c1ccc2c(Cl)c3c(nc2c1)CCC3 | ? | 82.1%[activator]
COC(=O)c1cc(-c2ccc(C)o2)nc2ccccc12 | -10.8% | 13.5%
CC(C)CN(CC(N)=O)CC(=O)N(C)C1(C#N)CCCCC1 | 2.4% | -10.1%
COc1ccc(C(=O)Nc2cc(C(C)C)c(O)c(S(=O)(=O)c3ccc(Cl)cc3)c2C)cc1 | 59.0%[activator] | 251.9%[activator]
COCCNC(=O)c1ccc2c(c1)N(Cc1cc(C)ccc1C)C(=O)c1ccccc1S2(=O)=O | 81.0%[activator] | 0.0%
CC(C)(C)OC(=O)N1CCC(c2c(C(=O)Nc3ccc4c(c3)OCCO4)cnn2-c2ccc(F)cc2)CC1 | ? | ?
Cc1ccc2c(c1)c1c(c(=O)n(Cc3ccccc3)c(=O)n1CC(=O)Nc1ccccc1C)n2C | -6.7% | 8.4%
CCCCCn1nc(C(=O)NCc2ccc(Cl)cc2)c2ccccc2c1=O | 26.1% | 2.2%
CC1=C(C(N)=O)C(c2cccc(Br)c2)n2nc(SCc3ccccc3Cl)nc2N1 (configuration not stated) | -8.3% | 7.3%
O=C(Oc1ccc2c(c1)O/C(=C\C=C\c1ccccc1)C2=O)c1cccs1 | -3.5% | 0.0%
N#CCOc1ccc2[nH]cc(C(C(=O)O)N3CCN(Cc4ccccc4)CC3)c2c1 (configuration not stated) | -14.9% | -2.7%
COc1cccc(NC(=O)/C(C#N)=C\c2cn(Cc3ccc(Cl)cc3)c3ccccc23)c1 | ? | ?
CC(=O)NN=C1CCC(C(C)(C)C)CC1 (configuration not stated) | -1.9% | 0.2%
CC(=O)O[C@@H]1CC2C3CCc4cc(OC(=O)c5ccccc5)ccc4C3CCC2(C)[C@H]1OC(C)=O (some centres not stated) | 5.1% | -2.5%[11.5 µM]
COc1ccc(-c2noc(CCC(=O)Nc3ccc(C(F)(F)F)cc3)n2)cc1 | -3.5% | 60.4%[activator]
COc1ccc(CCNC(=O)Cn2ccc3cc(S(=O)(=O)N4CCCCC4)ccc32)cc1OC | 38.1%[activator] | -15.8%
CCc1ccccc1NC(=O)Cn1c(=O)n(Cc2cccc(Cl)c2)c(=O)c2ccccc21 | 3.8% | -9.4%
Cc1nn(CN2CCN(S(=O)(=O)c3ccccc3Cl)CC2)c(=O)c2ccccc12 | 20.7% | 46.7%[activator]
COc1ccc(Nc2oc(COc3ccc(C)cc3)nc2C#N)cc1 | -4.3% | 15.9%
COc1ccc(-c2oc3ncn4nc(COc5ccc(Cl)cc5)nc4c3c2-c2ccc(OC)cc2)cc1 | -3.3% | -13.7%
Cc1ccc(C(=O)Oc2cccc3cccnc23)cc1 | 6.1% | 11.2%
CCN1CCN(c2oc(/C=C/c3cccc(OC)c3)nc2C#N)CC1 | -7.7% | -2.0%
Cc1nc(SCC(=O)Nc2ccccc2)c2oc3ccccc3c2n1 | -1.8% | 10.4%
CCOc1ccc(NC(=O)CN(c2ccc(CC)cc2)S(=O)(=O)c2c(C)noc2C)cc1 | 2.7% | -9.3%
N#Cc1cc2c(n(-c3ccccc3C(F)(F)F)c1=O)CCCC2=O | -3.5% | ?
CCN1C(=O)N/C(=C/c2cn(CC(=O)Nc3ccccc3)c3ccccc23)C1=O | -0.6% | 12.9%
O=[N+]([O-])c1cccc(/C=N/OCc2ccccc2Cl)c1 | -4.6%[1.06 µM] | ?
Cc1ccc(Cl)cc1N1CCN(C(=O)Cn2c(-c3cccs3)cc3cc(F)ccc32)CC1 | -7.8% | -12.8%
O=C(OCc1ccc(I)cc1)c1ccc([N+](=O)[O-])cc1 | -2.8% | -5.1%
Cc1ncc(CO)c2cc(C(=O)Nc3ccc(OC(F)(F)F)cc3)c(=O)oc12 | 5.5% | 12.3%
COc1ccccc1N1CCN(c2ccc(=O)n(CC(=O)Nc3ccc(F)c(F)c3)n2)CC1 | 2.0% | 20.4%
CC(C)c1cc(=O)oc2cc(OCC(=O)NCCc3ccccc3)ccc12 | -4.7% | -15.8%
CCOc1ccc(NC(=O)c2sc3nc4c(c(-c5ccccc5)c3c2N)C(=O)CC(C)(C)C4)cc1 | -14.7% | -6.4%
CC(C)Cn1cnc2c1c(=O)n(CC(=O)NCc1ccc(Cl)cc1)c(=O)n2Cc1ccccc1 | 2.0% | 4.7%
COc1ccc(OC)c(S(=O)(=O)N2Cc3ccccc3CC2C(=O)Nc2ccc(C(C)=O)cc2)c1 (configuration not stated) | 120.2%[activator] | 0.0%
CCCOc1ccc(-c2nc(C#N)c(NCCCN(C)C)o2)cc1 | -13.6% | 0.1%
COC(=O)c1ccc(OC(=O)c2ccc(COc3ccccc3)o2)cc1 | -1.5% | 0.0%
CCC1(c2ccccc2)C(=O)NCNC1=O | -3.7% | -10.7%
Cc1[nH]c2ccc(C(=O)N3CCC(C(=O)NCC(C)(C)CN(C)C)CC3)cc2c1C | -2.0% | 12.8%
N#Cc1c(N)n[nH]c1CCCNC(=O)c1cc(-c2ccco2)nc2ccccc12 | 27.0% | 22.6%
COc1cc(OC)c(OC)cc1CN1CCc2nc(N3CCN(c4ncccn4)CC3)ncc2C1 | ? | ?
Cc1ccc(NC(=O)C(=O)NCC(c2cccnc2)N2CCN(Cc3ccccc3)CC2)cc1F (configuration not stated) | -13.4% | -19.0%
CC(=O)c1ccc(NC(=O)COC(=O)C2CCN(c3ccc(C(F)(F)F)cn3)CC2)cc1 | -10.4% | 12.3%
Cc1cc(C)cc(N2CC(C(=O)OCC(=O)c3ccccc3)CC2=O)c1 (configuration not stated) | -8.0% | -0.3%
CC(CNC(=O)CCS(=O)(=O)c1cc2c(cc1Cl)NC(=O)CO2)c1ccccc1 (configuration not stated) | 14.2% | 2.4%
O=C(Nc1ccc(C(=O)N2CCN(c3ccccc3F)CC2)cc1)c1nsc2ccccc12 | 31.0%[activator] | -11.1%
COc1ccc(C2CC(=O)N(CC(=O)Nc3ccc4c(c3)OCO4)c3ccccc3S2)cc1OC (configuration not stated) | 55.5%[activator] | 112.1%[activator]

(next part)
structure | 2A Renilla | StopGo FLuc
Cc1ccc(CNc2ncnc3c2cnn3-c2ccc(C)cc2C)cc1 | -17.4% | -5.8%
O=C(COCc1cc(-c2ccc(F)cc2)on1)Nc1cccc(O)c1 | 7.0% | 22.1%
Cc1ccsc1CNC(C)C(O)c1ccc(O)cc1 (configuration not stated) | -4.6%[1.06 µM] | 7.7%
COCCn1c(CSCc2ccc(Cl)cc2Cl)n[nH]c1=S | -14.6%[1.06 µM] | ?
O=S(=O)(c1ccc(Oc2ccc(Br)cc2F)nc1)N1CCCC1 | 17.0% | 23.5%
Cc1ccc(-c2nc(N)sc2CC(=O)OCC(=O)N(c2ccccc2)C(C)C)cc1 | 63.5%[activator] | 1.1%
CC1CCN(C(=O)C(C)OC(=O)c2cnc3ccccc3n2)CC1 (configuration not stated) | -13.6% | 9.5%
COc1ccc(N2C(=O)CCS2(=O)=O)cc1S(=O)(=O)N1CCCCC1 | 3.2% | 4.1%
c1cc(CNC2CC2)ccn1 | -8.5% | 6.2%
NC(=O)CCN(C(=O)c1ccc(Br)cc1)c1ccc(F)cc1 | -1.4% | 3.3%
Cc1ccc(CNC(=O)CSc2c3c(nc4ccc(Cl)cc24)CCCC3)cc1 | -10.9% | -7.0%
CCCC(C)NC(=O)N1CCN(C(=O)Cc2c[nH]c3ccccc23)CC1 (configuration not stated) | -1.8% | 7.6%
O=C(c1cc(-c2ccccc2O)on1)N1CCCCC1 | 63.0%[activator] | 90.1%[activator]
Cc1ccc(CNC(=O)CN2N=C(c3ccc(C)cc3)CCC2=O)cc1 | -16.4% | -17.8%
Cc1cc(C)c(NC(=O)CNC(=O)c2cc3cc(Cl)ccc3nc2C)c(C)c1 | 5.7% | 5.5%
CCOC(=O)C1=C(C)OC(N)=C(C#N)C1c1ccc(C(F)(F)F)cc1 (configuration not stated) | 19.0% | 32.5%
CCCCNC(=S)Nc1ccc(Cl)cc1Cl | 179.5%[activator] | 97.4%[activator]
CC(C)Cc1nc2oc3c(NCC(C)O)ncnc3c2c2c1CCC2 (configuration not stated) | 12.5% | 33.1%[activator]
CCOC(=O)c1cc(NC(=O)C(C)CC)cc(C(=O)OCC)c1 (configuration not stated) | 26.4% | 8.0%
CC(NC(=O)c1n[nH]c(=O)c2ccccc12)c1ccc2ccccc2c1 (configuration not stated) | 0.0% | 35.4%
CSCCC(NS(=O)(=O)c1ccc2c(c1)oc(=O)n2C)C(=O)Nc1ccc(F)cc1 (configuration not stated) | 7.0% | 4.4%
O=S(=O)(c1ccc2nc(NCCN3CCN(c4ccccc4F)CC3)ccc2c1)N1CCCC1 | ? | ?
Cc1ccc(C(=O)/C=C\N(C)C)cc1 | 12.2% | 20.1%
Cc1scc(CN2CCN(c3ccccc3F)CC2)c1C | ? | ?

Pulled by compound from above, two records:
structure | 2A Renilla | StopGo FLuc
CCOC(=O)c1cc(NC(=O)C(C)CC)cc(C(=O)OCC)c1 (configuration not stated) | 26.4% | 8.0%
CCCCNC(=S)Nc1ccc(Cl)cc1Cl | 179.5%[activator] | 97.4%[activator]

Continuation.
structure | 2A Renilla | StopGo FLuc
Cc1cccc(NC(=O)CCc2c[nH]c3ccccc23)c1C | -9.0% | 10.1%
CCc1cccc(C)c1NC(=O)CSc1nnc(N)s1 | -7.7% | 42.1%[activator]
COCCn1c(SCc2cc(F)ccc2OC)nnc1-c1ccncc1 | -3.5%[1.06 µM] | -1.1%
CCn1c(SCC(=O)N2CCC(C)CC2)nnc1-c1ccccc1O | 20.0% | -7.1%
CC(C)n1ncc2cc(C(=O)Nc3ccc(OCC(F)(F)F)cc3)cnc21 | ? | ?
Cc1ccc(C(CC#N)C2CCOC(C)(C)C2)cc1 (configuration not stated) | 20.7% | 6.6%
